HSD17B inh = blocks hydroxysteroid 17-beta dehydrogenase activity. Q99714. recombinant HSD17B10, NADH fluorescence kinetic; many of its hits are not listed in these tables. Potency, µM (titrated, usually from 57.1 µM), without a hit: top-dose activity change, negative = inhibition, most hits filed as inhibitors. 7.6% of 75,000 active. AID 893; active = well fitted inhibition curve with a large enough effect; inconclusive = small, poorly fitted or top-dose-only effect; inactive = no such curve, though single readings can be large or run the other way;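 note: the protocol describes HADH2 (HSD17B10) and not the HSD17B4 of the title; nearly all actives have a fitted effect of over 70% in size; most hits overshoot -100% by far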
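20 nM HADH2, pH 9.0 Tris/Tween; cpd preinc 15 min RT; start w/ 1 mM NAD+ + 90 uM b-hydroxybutyryl-CoA; kinetic fluor ex360/em450 q30s x 4 min; delta last-first.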
Active calls of the source: *; ? = inconclusive; [ ] = dose if it differs, or a comment. % is set by controls: 0 for no effect and ±100 for the full control effect; potency is the fitted concentration of half-maximal effect. Some of the compounds tested, so the mix of outcomes need not match the whole.

SMILES | HSD17B inh
N#CC1=C(N)SC(N)=C(C#N)C1c1ccc(C(F)(F)F)cc1 | 25µM*
C=C(C)Cn1c(COc2ccccc2)nnc1SCC(=O)O | 6%
Cc1c2cnccc2c(C)c2c1c1ccccc1n2CCOC(=O)c1ccccc1 | ?
CCOC(=O)CSC1=C(C#N)C(c2ccccc2OCC)C(C(=O)OCC)C(=O)N1 (stereo not drawn) | 5%
CCOC(=O)N1CCC(Nc2cc(C)nc3c(-c4ccccc4OC)c(C)nn23)CC1 | -7%
O=S(=O)(NC1c2cccc3cccc(c23)C1N1CCN(CCO)CC1)c1ccccc1 (stereo not drawn) | 7%
O=C(NCc1ccc2c(c1)OCO2)c1cnc2ccccn2c1=O | 5%
COc1ccc(CNC(=O)c2cnc(C)cn2)c(OC)c1 | 0%
CCCOc1nc(N)c(C#N)c(-c2ccccc2F)c1C#N | -1%
Cc1[nH]c2ccccc2c1CCO | 11%
COc1ccc(-c2nnnn2C)cc1S(=O)(=O)NCCc1ccccc1 | 2%
CCOc1ccc(NC(=O)N(CCN(C)C)C(C)c2ccncc2)cc1 (stereo not drawn) | 7%
COc1ccccc1OCCC(=O)OCC(=O)NC(=O)NC(C)(C)C | 4%
CCCC(C)C(=O)Nc1nnc(C)s1 (stereo not drawn) | 7%
CCN(CC)CCNC(=O)C1CCN(S(=O)(=O)N2CCCCC2)CC1 | -4%
CCCCC(=O)N(CCOC)c1nnc(-c2ccc(OC)cc2)s1 | 25µM*
CCCCCN(C(=O)NC(=O)Nc1nncs1)S(C)(=O)=O | -2%
C1CCc2c(nnc3c2-c2nonc2CC3)C1 | 8%
CCCn1c2c(c(O)c(C(=O)Nc3nc(C)cs3)c1=O)CCCC2 | -11%
CS(=O)(=O)N1CCC2(CC1)CN(C(=O)Nc1cccc(F)c1)C2 | -7%
Cc1ccnc(NS(=O)(=O)c2ccc(NC(=O)C3CCCO3)cc2)n1 (stereo not drawn) | -3%
CCCCCc1cc(O)c2c(C)cc(=O)oc2c1 | -18%
CC(=O)Nc1cccc(N)c1 | -3%
Cc1ccc(S(=O)(=O)N(CC(=O)O)c2ccc(Cl)cc2)cc1 | 12%
Oc1ccc(Br)cc1CN1CCCCCCC1 | 5%
Cc1ccc2cc(C#N)c(NCCCNC(=O)C3CCCO3)nc2c1 (stereo not drawn) | 32µM*
OC(c1ccc(Cl)cc1)c1nnc(-c2ccccc2)o1 (stereo not drawn) | -4%
COc1cc(OC)cc(-c2nnc(SCC(=O)N3CCCc4ccccc43)o2)c1 | -12%
O=C(O)c1ccccc1NS(=O)(=O)c1ccccc1F | -15%
CC(=O)N1CCC2(CC1)CCN(C(=O)Nc1cccc(F)c1)CC2 | -4%
CCC1(C)CC(CC(=O)O)(c2ccccc2OC)CCO1 (stereo not drawn) | 4%
C=CCNC1=C(Cl)C(=O)N(c2ccccc2Cl)C1=O | 4%
CCOc1ccc(-c2nc(CSc3nncs3)cs2)cc1OC | ?
CCc1ccccc1OCC(=O)Nc1ccc(S(N)(=O)=O)cc1 | 0%
COc1ccc(CN2C(=O)c3ccccc3C2C(=O)NCC2CCCO2)c(OC)c1 (stereo not drawn) | -7%
CCOC(=O)C1CCN(c2nc(-c3ccccc3)nc3c2oc2ccccc23)CC1 | 32µM*
CCOC(=O)c1ccc2c(c1)N(Cc1ccccc1C)C(=O)c1ccccc1S2=O (stereo not drawn) | -7%
CC(C)(C)n1nnnc1C(c1ccccc1F)N1CCN(C2CCCC2)CC1 (stereo not drawn) | 9%
CC(=O)N(O)[C@@H]1c2cc(C#N)ccc2OC(C)(C)[C@H]1O | -4%
Cc1ccc(O)c(NC(=O)CCCC(=O)O)c1 | 0%
Cc1ccccc1-c1nc2ccccc2c(=O)n1C1CCS(=O)(=O)C1 (stereo not drawn) | -3%
N[C@@H](CNO)C(=O)O | 4%[11.4 µM]
CC(=O)OC1CSc2nc3ccccc3n2C1 (stereo not drawn) | 11%
CC(=O)c1cccc(NC(=O)Nc2ccc(C(=O)N3CCCC3)cc2)c1 | 1%
COc1ccc(C2OC(=O)c3ccccc3S2)cc1 (stereo not drawn) | -6%
COC(=O)C(Nc1nccs1)(OC)C(F)(F)F (stereo not drawn) | 3%
Cc1ccc(C(=O)CSc2nnc(CNc3ccc(C)cc3C)n2Cc2ccco2)cc1 | 2%
COc1ccc(C2N(c3cc(Cl)ccc3OC)C(=O)C3CCCN32)cc1OC (stereo not drawn) | 4%
CC(=O)c1c(C)[nH]c(C(=O)NCCCN2CCCC2)c1C | 9%
O=C(CCC(=O)OCC(F)(F)C(F)F)Nc1ccc(Cl)cc1 | 0%
CS(=O)(=O)Nc1ccc(C(=O)NCc2ccccn2)cc1 | 3%
Cc1ccc(N2C(=O)c3ccccc3C2(O)c2ncc[nH]2)cc1 (stereo not drawn) | 5%
CC1CCCCC1NC(=O)Cn1[nH]c(=O)c2ccccc2c1=O (stereo not drawn) | 3%
COCCOC(=O)C1=C(C)NC(=O)NC1c1cccs1 (stereo not drawn) | 3%
COC(=O)CC1C2(C)CC34OC5(C)O[C@@]6(C7/C(=C(/O)C(C)C)C(=O)OC(c8ccoc8)[C@]7(C)C(OC(C)=O)C(OC(C)=O)[C@]6(O5)[C@@]13C)C(OC(C)=O)[C@]4(O)C2OC(=O)C(C)C (stereo partly drawn) | -2%
CCOC(=O)C1=C(CC)OC(N)=C(C#N)C1c1cc(OC)ccc1OC (stereo not drawn) | 14%
CO[C@H]1COC(=O)[C@H](C)NC(=O)C/C=C\[C@@H](C)[C@H](OC)COC(=O)C/C=C\[C@@H]1C | 4%[11.4 µM]
O=C(CSc1nnnn1Cc1ccccc1)Nc1ccc2c(c1)OCCO2 | -6%
O=C(CCCC(=O)N(CC(=O)NC1CCCCC1)Cc1ccco1)Nc1ccccn1 | -9%
C=C1CCC2C(C)(CO)C(O)CCC2(C)C1C/C=C1\C(=O)OCC1O (stereo not drawn) | 9%

Random excerpt: 6 entries already listed
SMILES | HSD17B inh
CC1CCCCC1NC(=O)Cn1[nH]c(=O)c2ccccc2c1=O (stereo not drawn) | 3%
CCOC(=O)C1=C(CC)OC(N)=C(C#N)C1c1cc(OC)ccc1OC (stereo not drawn) | 14%
COC(=O)CC1C2(C)CC34OC5(C)O[C@@]6(C7/C(=C(/O)C(C)C)C(=O)OC(c8ccoc8)[C@]7(C)C(OC(C)=O)C(OC(C)=O)[C@]6(O5)[C@@]13C)C(OC(C)=O)[C@]4(O)C2OC(=O)C(C)C (stereo partly drawn) | -2%
Cc1ccc(N2C(=O)c3ccccc3C2(O)c2ncc[nH]2)cc1 (stereo not drawn) | 5%
C=C1CCC2C(C)(CO)C(O)CCC2(C)C1C/C=C1\C(=O)OCC1O (stereo not drawn) | 9%
CC(=O)c1c(C)[nH]c(C(=O)NCCCN2CCCC2)c1C | 9%

Additional entries follow:
SMILES | HSD17B inh
O=C(O)c1ccccc1C1c2ccccc2Oc2ccccc21 | 3%[11.4 µM]
COc1cccc2sc(Nc3nc(-c4ccccn4)cs3)nc12 | -25%
COc1ccc(NC(=O)CN(c2cccc(F)c2)S(C)(=O)=O)cc1OC | -4%
CCCCCCCCCCCCCCC1CO1 (stereo not drawn) | 1%
COC(=O)NC(CC(C)=O)c1cccc(C(F)(F)F)c1 (stereo not drawn) | 3%[11.4 µM]
CCC1CCCCN1CC(=O)c1c(C)[nH]c2ccccc12 (stereo not drawn) | -6%
NC(=O)C1(N2CCCCC2)CCN(c2nc(-c3ccccc3)cs2)CC1 | 4%
Cc1ccc(-c2nnn(CC(=O)O)n2)cc1 | 1%
CCOC(=O)c1c(-c2cccs2)csc1NC(=O)c1ccco1 | ?
O=C(O)c1cc2ccccc2[nH]1 | ?
CC(C)CCn1c(CN2CCOCC2)nc2c1c(=O)n(C)c(=O)n2C | 3%
CCC(=O)NCCNC(=O)c1c(SC)nsc1SC | 8%
c1ccc(-c2noc(CSc3nnnn3-c3ccccc3)n2)cc1 | -7%
CSCCC=O | -2%
COc1cccc(-c2cc(C(=O)N3C(C)CCCC3C)no2)c1 (stereo not drawn) | -7%
Cc1cccc(C#N)c1NC1=CC(=O)CC(C)(C)C1 | -2%
COc1ccc2c(c1)C(=O)OC2CC(=O)O (stereo not drawn) | 0%
CCN(CC)CC(=O)n1c2c(c3ccccc31)CCCC2 | 5%
c1ccc(Cc2nn3c(COc4ccccc4)nnc3s2)cc1 | -10%
c1csc(Cc2nc(-c3ccc(-n4cccc4)cc3)no2)c1 | -6%
CC(C)CCCC(C)C1CCC2C3=CC[C@@H]4CC(O)CC[C@@]4(C)C3CC[C@]21C (stereo partly drawn) | 12%
CCOC(=O)CCC(=O)c1c(C)oc2ccc(OC)cc12 | -7%
O=C1N(CN2CCC3(CC2)OCCO3)c2ccccc2C12OCCCO2 | 6%
CCSc1nnc(NC(=O)CSc2nccn2-c2cc(C)cc(C)c2)s1 | -1%

A few values from the list.
Entry of COc1ccc2c(c1)C(=O)OC2CC(=O)O (stereo not drawn) under HSD17B inh: 0%
Entry of CCN(CC)CC(=O)n1c2c(c3ccccc31)CCCC2 under HSD17B inh: 5%
Entry of c1ccc(Cc2nn3c(COc4ccccc4)nnc3s2)cc1 under HSD17B inh: -10%
Entry of COc1cccc(-c2cc(C(=O)N3C(C)CCCC3C)no2)c1 (stereo not drawn) under HSD17B inh: -7%
Entry of Cc1cccc(C#N)c1NC1=CC(=O)CC(C)(C)C1 under HSD17B inh: -2%
Entry of CCSc1nnc(NC(=O)CSc2nccn2-c2cc(C)cc(C)c2)s1 under HSD17B inh: -1%

Remaining list, next part.
SMILES | HSD17B inh
Cc1noc(C)c1COc1cccc(C(=O)Nc2ccc(C#N)cc2)c1 | ?
O=C(O)c1cccc(-n2cnnn2)c1 | 8%
O=C(CSc1nnc(-c2ccco2)n1Cc1ccccc1)c1ccc(F)cc1 | ?
Cc1nc(SCC(=O)OCc2ccccc2)c2c(=O)n(C)c(=O)n(C)c2n1 | 9%
CCC(=O)Nc1cc2c(cc1C(=O)CC)OCCO2 | -8%
CCN(CC)CCCNC(=O)c1nn(-c2ccccc2OC)c(=O)c2ccccc12 | -3%
CC(=O)Nc1nonc1-c1nc2ccccc2n1Cc1nnc(C)o1 | ?
COCCCNC(=O)Cn1nc(-c2ccc(C)cc2)ccc1=O | 25µM*
O=C(C1CCCCC1)N1CCCC(c2nc3c(nnn3Cc3ccccc3)c(=O)[nH]2)C1 (stereo not drawn) | 0%
COc1cccc(N2CCN(Cc3nc(N)nc(Nc4ccccc4OC)n3)CC2)c1 | 0%
COc1cc2c(cc1NC(=O)CN1C(=O)NC3(CCc4ccccc43)C1=O)oc1ccccc12 (stereo not drawn) | 25µM*
O=C(O)Cn1nc(-c2ccc(F)cc2)oc1=O | 6%
CCn1c(SCC(=O)Nc2ccc(NC(=O)c3cccs3)cc2)nnc1-c1cccnc1 | 7%
O=C(CN1C(=O)COc2ccccc21)c1ccc(Cl)cc1 | 18%
Cc1noc(C)c1C(=O)OCC(=O)c1c[nH]c2ccccc12 | 5%
O=C(O)[C@H](Cc1cc(I)c(O)c(I)c1)C1CCCCC1 | -9%[11.4 µM]
COc1ccc(C)cc1NC(=O)c1nc2nc(C)cc(C)n2n1 | 5%
CN1CCCC(OC(=O)CCCCC(=O)OC2CCCN(C)C2)C1 (stereo not drawn) | 3%
O=C(C1CCN(S(=O)(=O)N2CCOCC2)CC1)N1CCOCC1 | 2%
O=C(O)CCCC(=O)Nc1nc2n(n1)C(c1ccc(F)cc1)CC(c1ccc(Cl)cc1)N2 (stereo not drawn) | 5%
CC(C)[C@H](NC(=O)OC(C)(C)C)[C@@H](O)CC(=O)C(C)(C)C | 5%[11.4 µM]
CC1Cc2ccccc2N1C(=O)CN1C(=O)NC(C)(c2ccc3c(c2)OCCO3)C1=O (stereo not drawn) | 11%
Cc1nc(CNS(=O)(=O)c2ccc3ccccc3c2)cs1 | 4%
NC(=O)C1(N2CCCCC2)CCN(S(=O)(=O)c2cc(Cl)ccc2Cl)CC1 | 1%

Some of the entries above in a different format.
structure	HSD17B inh
CC(C)[C@H](NC(=O)OC(C)(C)C)[C@@H](O)CC(=O)C(C)(C)C	5%[11.4 µM]
CC1Cc2ccccc2N1C(=O)CN1C(=O)NC(C)(c2ccc3c(c2)OCCO3)C1=O (stereo not drawn)	11%
Cc1nc(CNS(=O)(=O)c2ccc3ccccc3c2)cs1	4%
NC(=O)C1(N2CCCCC2)CCN(S(=O)(=O)c2cc(Cl)ccc2Cl)CC1	1%

Further entries follow.
SMILES | HSD17B inh
Brc1ccc(-c2nn3c(-c4ccncc4)nnc3s2)o1 | -8%
CCOc1ccccc1NC(=O)CSc1nnc(Cn2c(=O)sc3ccccc32)n1C | -4%
CCOC(=O)C1C(=O)NC(SCC(=O)OC)=C(C#N)C1c1ccccc1OCC (stereo not drawn) | 1%
COC(=O)CC1Oc2ccc(C)cc2NC1=O (stereo not drawn) | 3%
O=C(C1CCCN1S(=O)(=O)c1cccc2cccnc12)N1CCc2ccccc2C1 (stereo not drawn) | -17%
CCCCNc1nc(C)nc2c1nc(-c1ccccc1)n2CCCN(CC)CC | 25µM*
OC(CCCCN1CCCCC1)c1ccccc1 (stereo not drawn) | 19%
CCOC(=O)c1c(C)[nH]c(C)c1C(=O)CSc1nnc(-c2ccncc2)n1C | 12%
COc1ccc(C(C)=O)cc1COC(=O)c1cccc(N(C)C)c1 | 32µM*
Cn1c(Cn2nnc3ccccc32)nnc1SCC(=O)N1CCc2ccccc21 | 12%
COc1cccc(N2CCN(S(=O)(=O)c3ccc4nc(-c5ccccc5)[nH]c4c3)CC2)c1 | ?
O=C(O)CCC(=O)NC1CCCCC1NC(=O)CCC(=O)O (stereo not drawn) | 2%
O=C(CCS(=O)(=O)c1cccc2nonc12)N1CCOCC1 | -4%
COc1ccc(Cn2c(=O)[nH]c3cc(C(=O)N4CCN(Cc5ccccc5)CC4)ccc3c2=O)cc1 | ?
Cc1ccc(NS(=O)(=O)c2ccc(NC(=O)c3ccc(Br)o3)cc2)c(C)c1 | ?

Screening data: PubChem BioAssay, National Center for Advancing Translational Sciences (NCATS)
